Source: PubChem BioAssay
SENP8 inh = blocks human SENP8 cleavage of Nedd8 substrate; actives 0.64% (n = 360,000); inhibition, % at 20 µM; AID 602440; Q96LD8; recombinant SENP8, Nedd8 substrate fluorescence; in the data active = inhibition mostly above about 40%, no sharp cut-off; inactive = mostly below about 27%
SENP7 block = SENP7 protease inhibition; Q9BQF6; inhibition, % at 5 µM; recombinant SENP7, Z-RLRGG-aminoluciferin luminescence, 40 min; actives 1.5% (n = 330,000);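 active = inhibition above about 50% at the single test dose, limit read from the data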;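 note: plate controls were DMSO with enzyme for no effect and no enzyme buffer wells for full effect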
SENP6 block = SENP6 protease inhibition | Q9GZR1 | Recombinant SENP6 catalytic domain, aminoluciferin luminescence | inhibition, % at 10 µM | actives 1.8% (n = 330,000) | AID 2599;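 active = inhibition above about 50% at the single tested dose, limit read from the data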;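 note: plate controls were DMSO wells with enzyme for no effect and DMSO wells lacking enzyme for full effect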
HKDC1 inhibitor = inhibitors of human hexokinase HKDC1 | actives 0.16% (n = 340,000) | inhibition, % at 20 µM | AID 493160 | recombinant HKDC1, G6PDH/diaphorase resazurin coupled fluorescence | Q2TB90;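 active = inhibition above about 35% when tested at 20 µM, limit read from the data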;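 note: plate controls were DMSO wells with enzyme for no effect and DMSO wells lacking enzyme for full effect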
Target sequence (Q2TB90 whole entry, looked up): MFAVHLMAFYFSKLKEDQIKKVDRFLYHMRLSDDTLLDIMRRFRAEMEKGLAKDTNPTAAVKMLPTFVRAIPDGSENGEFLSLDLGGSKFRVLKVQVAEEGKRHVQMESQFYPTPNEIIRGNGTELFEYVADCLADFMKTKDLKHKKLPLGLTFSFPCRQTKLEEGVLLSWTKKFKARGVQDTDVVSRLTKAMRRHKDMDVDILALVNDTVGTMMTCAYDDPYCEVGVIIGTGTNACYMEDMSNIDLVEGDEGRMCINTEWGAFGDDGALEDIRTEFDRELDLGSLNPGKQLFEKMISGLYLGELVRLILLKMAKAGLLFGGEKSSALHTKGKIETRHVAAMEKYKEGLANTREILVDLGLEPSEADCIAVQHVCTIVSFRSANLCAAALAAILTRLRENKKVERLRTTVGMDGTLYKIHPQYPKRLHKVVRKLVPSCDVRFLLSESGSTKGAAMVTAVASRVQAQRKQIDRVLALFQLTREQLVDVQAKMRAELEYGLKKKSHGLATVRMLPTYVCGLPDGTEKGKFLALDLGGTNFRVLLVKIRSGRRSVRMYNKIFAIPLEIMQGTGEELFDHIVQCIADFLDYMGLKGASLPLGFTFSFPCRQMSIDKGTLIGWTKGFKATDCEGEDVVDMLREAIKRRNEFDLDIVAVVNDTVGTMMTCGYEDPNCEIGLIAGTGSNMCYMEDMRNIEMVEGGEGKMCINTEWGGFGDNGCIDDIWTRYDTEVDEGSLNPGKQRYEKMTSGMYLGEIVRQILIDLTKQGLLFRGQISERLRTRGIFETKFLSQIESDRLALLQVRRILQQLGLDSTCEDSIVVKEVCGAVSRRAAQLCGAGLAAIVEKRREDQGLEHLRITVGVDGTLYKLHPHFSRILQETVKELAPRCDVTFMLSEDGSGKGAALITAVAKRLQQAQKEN
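test system = in-house recombinant HK5 (HKDC1) enzyme | amount = HKDC1 at 5 µg/mL | control set = DMSO-enzyme wells negative, buffer-substituted wells positive | compound = one dose of 20 µM, 1% DMSO | schedule = reaction time 90 min, room temperature, protected from light | technique = resorufin fluorescence at 613 nm | reagent = glucose with 1 mM ATP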
ATG4B inhibitor = ATG4B (human) cysteine protease inhibition | Q9Y4P1 | ATG4B cleavage of LC3-PLA2, NBD-HPC fluorescence, 1 h | inhibition, % at 8.33 µM | actives 0.51% (n = 340,000) | AID 504462; in the data active = inhibition above about 40%
* = called active by the depositor; x = not tested or not shown; & = joins results of further samples. The list is partial, so the mix of outcomes need not match the whole.

[1] N#Cc1c(-c2ccc(Cl)cc2)c(-c2ccc(Cl)cc2)nn(CCO)c1=O
[2] NS(=O)(=O)c1cc2c(cc1Cl)NC=NS2(=O)=O
[3] Nc1ccn(C2OC(CO)C(O)C2O)c(=O)n1 (stereo unspecified)
[4] CCN(Cc1ccncc1)C(=O)C(CO)c1ccccc1 (stereo unspecified)
[5] c1ccc(-c2ccc(-c3cn4c(n3)CCC4)cc2)cc1
[6] CSc1ccc(C(=O)c2[nH]c(=O)[nH]c2C)cc1

entry no.	1	2	3	4	5	6
SENP8 inh	-184	6	26	7	-444	4
SENP7 block	x	8	x	-7	73*	9
SENP6 block	x	7	x	-14	87*	9
HKDC1 inhibitor	1	-1	x	3	-2	-3
ATG4B inhibitor	0	-5	x	-3	3	5

[7] CC(=O)Nc1c(I)c(NC(C)=O)c(I)c(C(=O)O)c1I
[8] O=S(=O)(c1ccc(F)cc1)n1cnc2ccccc21
[9] Nc1ncn(C2O[C@H](CO)[C@@H](O)[C@H]2O)c(=O)n1 (stereo partly specified)
[10] Clc1ccc(C(Cn2ccnc2)OCc2c(Cl)cccc2Cl)c(Cl)c1 (stereo unspecified)
[11] CCOC(=O)[C@H](CCc1ccccc1)N[C@H]1CCc2ccccc2N(CC(=O)O)C1=O
[12] OC[C@@H](O)[C@@H](O[C@H]1O[C@H](CO)[C@@H](O)[C@H](O)[C@H]1O)[C@H](O)[C@@H](O)CO

entry no.	7	8	9	10	11	12
SENP8 inh	2&3	10	x	10	6	4
SENP7 block	-1&-6	3	-2	-1	-1	4
SENP6 block	9&-9	16	4	-22	-16	5
HKDC1 inhibitor	-1&10	0	x	2	0	-1
ATG4B inhibitor	-5&-10	7	x	23	3	-6

[13] CN(C)CCOC(c1ccccc1)c1ccccc1 (tested in a mixture with another compound)
[14] CCC(C)(C)C(=O)O[C@H]1C[C@@H](C)C=C2C=C[C@H](C)[C@H](CC[C@@H]3C[C@@H](O)CC(=O)O3)[C@H]21
[15] Cc1nc2ccccc2c(-c2ccccc2)c1CC(=O)O
[16] COc1cc([C@@H]2c3cc4c(cc3[C@@H](O[C@@H]3O[C@@H]5CO[C@@H](C)O[C@H]5[C@H](O)[C@H]3O)[C@H]3COC(=O)[C@H]23)OCO4)cc(OC)c1O
[17] COc1ccc(Cl)cc1C(=O)NCCc1ccc(S(=O)(=O)NC(=O)NC2CCCCC2)cc1
[18] Oc1cc2c(c(Cl)c1O)CCNCC2c1ccccc1 (stereo unspecified)

entry no.	13	14	15	16	17	18
SENP8 inh	15	11	11	7	6	18
SENP7 block	4	-8	-4	-3	5	-11
SENP6 block	-5	-10	-16	-12	-4	-2
HKDC1 inhibitor	-6	7	-11	-6	-5	-1
ATG4B inhibitor	-4	-6	-3	0	-1	-4

12 compounds out of the list, arranged by formula weight, rising:
[9] Nc1ncn(C2O[C@H](CO)[C@@H](O)[C@H]2O)c(=O)n1 (stereo partly specified)
[13] CN(C)CCOC(c1ccccc1)c1ccccc1 (tested in a mixture with another compound)
[5] c1ccc(-c2ccc(-c3cn4c(n3)CCC4)cc2)cc1
[8] O=S(=O)(c1ccc(F)cc1)n1cnc2ccccc21
[15] Cc1nc2ccccc2c(-c2ccccc2)c1CC(=O)O
[4] CCN(Cc1ccncc1)C(=O)C(CO)c1ccccc1 (stereo unspecified)
[18] Oc1cc2c(c(Cl)c1O)CCNCC2c1ccccc1 (stereo unspecified)
[10] Clc1ccc(C(Cn2ccnc2)OCc2c(Cl)cccc2Cl)c(Cl)c1 (stereo unspecified)

entry no.	9	13	5	8	15	4	18	10
SENP8 inh	x	15	-444	10	11	7	18	10
SENP7 block	-2	4	73*	3	-4	-7	-11	-1
SENP6 block	4	-5	87*	16	-16	-14	-2	-22
HKDC1 inhibitor	x	-6	-2	0	-11	3	-1	2
ATG4B inhibitor	x	-4	3	7	-3	-3	-4	23

[14] CCC(C)(C)C(=O)O[C@H]1C[C@@H](C)C=C2C=C[C@H](C)[C@H](CC[C@@H]3C[C@@H](O)CC(=O)O3)[C@H]21
[11] CCOC(=O)[C@H](CCc1ccccc1)N[C@H]1CCc2ccccc2N(CC(=O)O)C1=O
[17] COc1ccc(Cl)cc1C(=O)NCCc1ccc(S(=O)(=O)NC(=O)NC2CCCCC2)cc1
[16] COc1cc([C@@H]2c3cc4c(cc3[C@@H](O[C@@H]3O[C@@H]5CO[C@@H](C)O[C@H]5[C@H](O)[C@H]3O)[C@H]3COC(=O)[C@H]23)OCO4)cc(OC)c1O

entry no.	14	11	17	16
SENP8 inh	11	6	6	7
SENP7 block	-8	-1	5	-3
SENP6 block	-10	-16	-4	-12
HKDC1 inhibitor	7	0	-5	-6
ATG4B inhibitor	-6	3	-1	0

Further structures:
[19] O=C(O)c1cc(S(=O)(=O)N2CC=C(c3ccccc3)CC2)ccc1O
[20] CC(=O)N1CCN(C(c2ccccc2)c2ccccc2)CC1
[21] Nc1ncnc2c1ncn2[C@@H]1O[C@H](COP(=O)(O)OP(=O)(O)OP(=O)(O)O)[C@@H](O)[C@H]1O
[22] CN1Cc2c(N)cccc2C(c2ccccc2)C1 (stereo unspecified)
[23] O=C(O)CCCC[C@@H]1SC[C@@H]2NC(=O)N[C@@H]21
[24] CC(=O)O[C@H]1C(=O)[C@@]2(C)[C@H]([C@H](OC(=O)c3ccccc3)[C@]3(O)C[C@H](OC(=O)[C@H](O)[C@@H](NC(=O)c4ccccc4)c4ccccc4)C(C)=C1C3(C)C)[C@]1(OC(C)=O)CO[C@@H]1C[C@@H]2O

entry no.	19	20	21	22	23	24
SENP8 inh	-17	21	5	30&12	34	11
SENP7 block	6	-12	-1	7	2	-6
SENP6 block	3	-11	-10	6	-5	-2
HKDC1 inhibitor	0	5	-4	0&2	-2	0
ATG4B inhibitor	-35	5	7	0&3	-17	-6

[25] O=C(c1ccccc1)c1ccccc1
[26] C[N+]1(C)CC[C@H](OC(=O)[C@@](O)(c2ccccc2)C2CCCC2)C1
[27] NCC(O)c1ccc(O)c(O)c1 (stereo unspecified)
[28] N#Cc1ccc(OCC(O)CN2CCC(C(O)(c3ccccc3)c3ccccc3)CC2)cc1 (stereo unspecified)
[29] CCCCC[C@H](O)/C=C/[C@H]1[C@H](O)CC(=O)[C@@H]1CCCCCCC(=O)O
[30] CNC(CC(C)C)C(=O)NC1C(=O)NC(CC(N)=O)C(=O)NC2C(=O)NC3C(=O)NC(C(=O)NC(C(=O)O)c4cc(O)cc(O)c4-c4cc3ccc4O)C(O)c3ccc(c(Cl)c3)Oc3cc2cc(c3OC2OC(CO)C(O)C(O)C2OC2C[C@](C)(N)C(O)C(C)O2)Oc2ccc(cc2Cl)C1O (stereo partly specified)

entry no.	25	26	27	28	29	30
SENP8 inh	61*	8	3	16	x	-22
SENP7 block	1	0	x	-8	4	0
SENP6 block	0	9	x	-9	-4	0
HKDC1 inhibitor	-4	-7	7	-8	x	7
ATG4B inhibitor	-5	-6	2	-15	x	6

[31] Cn1c(NCCN(CCO)CCCc2ccc([N+](=O)[O-])cc2)cc(=O)n(C)c1=O
[32] CC(C)OC(=O)C(C)(C)Oc1ccc(C(=O)c2ccc(Cl)cc2)cc1
[33] CN(C)CCCN1c2ccccc2Sc2ccc(Cl)cc21
[34] CC#C[C@]1(O)CC[C@H]2[C@@H]3CCC4=CC(=O)CCC4=C3[C@@H](c3ccc(N(C)C)cc3)C[C@@]21C
[35] Cn1c(=O)n(C)c2cc(N3CCCCC3)c(NC(=O)c3ccccc3)cc21

entry no.	31	32	33	34	35
SENP8 inh	2	-5	-9&-35	14	4
SENP7 block	0	4	-6&-9	-9	1
SENP6 block	-1	11	-10&-1	-18	16
HKDC1 inhibitor	-3	-2	-3&4	-1	-2
ATG4B inhibitor	-10	0	11&15	-5	-6
